# PABP FP inh: blocks human PABP binding to poly(A) RNA | fluorescence polarization | inhibition, % at 35 µM | 1% of 290,000 active | AID 2014;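 active means 50% or more with normal probe brightness, or confirmed in later tests; about a fifth of its hits are not listed in these tables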;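 further: calls also rest on retests at 20 µM and on dose response follow-up; controls were probe without protein and protein plus probe with vehicle; some compounds called inactive have numbers as strong as hits; many hits fall short of the cut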
# Target sequence (P11940 whole entry, looked up): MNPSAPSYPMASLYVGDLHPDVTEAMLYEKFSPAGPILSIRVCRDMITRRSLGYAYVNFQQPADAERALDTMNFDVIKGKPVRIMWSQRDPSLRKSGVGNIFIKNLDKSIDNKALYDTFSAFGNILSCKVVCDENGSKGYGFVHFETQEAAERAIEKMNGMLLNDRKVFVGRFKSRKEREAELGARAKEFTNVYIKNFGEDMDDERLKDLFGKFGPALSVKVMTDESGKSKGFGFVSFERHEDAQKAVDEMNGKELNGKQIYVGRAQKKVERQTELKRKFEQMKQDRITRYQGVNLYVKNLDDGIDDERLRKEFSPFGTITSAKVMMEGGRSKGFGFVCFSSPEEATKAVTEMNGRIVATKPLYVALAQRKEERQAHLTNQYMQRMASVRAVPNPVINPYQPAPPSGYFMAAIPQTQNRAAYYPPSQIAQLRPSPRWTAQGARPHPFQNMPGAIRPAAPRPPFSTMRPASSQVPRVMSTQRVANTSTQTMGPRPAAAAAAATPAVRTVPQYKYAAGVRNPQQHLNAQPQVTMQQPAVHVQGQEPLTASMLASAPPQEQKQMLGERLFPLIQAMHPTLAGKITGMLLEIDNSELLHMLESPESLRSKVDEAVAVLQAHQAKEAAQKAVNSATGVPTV
# MT1-MMP act inh: inhibitors of human MT1-MMP activation. P50281. 0.061% of 360,000 active. GFP/RFP ratio change, % at 20 µM. HT1080 RFP-PRO-GFP cells, GFP/RFP ratio fluorescence, overnight; percent of plate control window, DMSO zero;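 active means GFP/RFP ratio change of at least 30% with cell ATP level not reduced by more than half and red fluorescence within 50% of control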; further: strong numbers were not always called active
#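 Test system: HT1080 cells expressing an RFP-PRO-GFP fluorescent reporter construct / Compound dosing: single-point 20 µM compound, 1% DMSO / Schedule: cells overnight before dosing, compound overnight, 37 °C, 5% CO2 / Evaluation: GFP/RFP fluorescence ratio / Control set: DMSO and RFP-L50D-GFP cell wells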
# HIV Env fusion: blocks HIV Env-driven cell-cell fusion. HeLa-JRFL Env/CEM21 cell fusion, luciferase. inhibition, % at 12.3 µM. 1.1% of 360,000 active. AID 651610;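 active means mean replicate inhibition score of at least 50 and every replicate individually at or above 50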;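 further: 0% = plate neutral controls and 100% = maraviroc near 300 nM; one replicate is shown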
# eIF4H inh: inhibitors of RNA binding by human eIF4H. Q15056. eIF4H fluorescence polarization binding assay. inhibition, % at 35 µM. 0.94% of 290,000 active. AID 2012;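 active means 50% or more with normal probe brightness, or confirmed in later tests; about a fifth of its hits are not listed in these tables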;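 further: calls also rest on retests at 20 µM and on dose response follow-up; 0% = protein and probe with vehicle and 100% = probe without protein; strong numbers were not always called active; many hits fall short of the cut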
# UUG fidelity: yeast start codon fidelity modulation; S. cerevisiae UUG-firefly luciferase reporter, luminescence/redox ratio; activity score, % at 18.7 µM; 0.13% of 350,000 active; AID 602363;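 active means replicate mean at a twofold rise or more, about +100% in these data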;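 further: firefly luciferase made from a UUG start codon reports start codon fidelity; reporter light over untreated wells divided by growth signal over untreated wells; some hits fall short of that in this replicate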
# Rce1 inh: inhibitors of yeast Ras-converting enzyme. Q03530. yeast membranes, quenched prenylated peptide cleavage fluorescence. calls only. 0.27% of 290,000 active;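 active means fall in fluorescence gain of 50% or more versus controls, with final raw signal at or below 3038400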;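 further: plate controls were neutral control wells for no effect and wells lacking membranes for full effect; tested at 10 µM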
# Target sequence (Q03530 whole entry, looked up): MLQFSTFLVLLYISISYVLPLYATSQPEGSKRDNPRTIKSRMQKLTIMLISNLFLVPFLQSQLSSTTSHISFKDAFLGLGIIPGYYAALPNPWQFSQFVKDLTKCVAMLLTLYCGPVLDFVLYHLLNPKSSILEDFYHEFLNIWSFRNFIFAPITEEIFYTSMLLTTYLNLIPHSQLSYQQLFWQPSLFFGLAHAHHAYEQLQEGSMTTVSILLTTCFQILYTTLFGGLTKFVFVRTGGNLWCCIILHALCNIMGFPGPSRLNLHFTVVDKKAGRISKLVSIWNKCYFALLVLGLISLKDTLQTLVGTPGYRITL
# CSC inhib: cancer stem cell inhibition; inhibition, % at 7.5 µM; 1.1% of 300,000 active; cancer stem cell-like cells viability, luminescence;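 active means mean at 75% or more and at least half the replicates too; tested in HMLE shEcad cells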;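 further: 0% = median of negative and 100% = median of positive control wells; the first replicate is given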
# MT1-MMP act inh RFP: recorded beside MT1-MMP act inh, whose call it bears; RFP signal change, %; measured here: RFP expression control read;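 0 = vehicle wells; hits needed this value within 50% of zero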
# Starred values were filed as active, the others as inactive; i = inactive; . = not tested or not shown; & = joins results of further samples; [ ] = remark or other dose.
entry	SMILES	PABP FP inh	MT1-MMP act inh	MT1-MMP act inh RFP	HIV Env fusion	eIF4H inh	UUG fidelity	Rce1 inh	CSC inhib
1	CC(=O)c1cccc(N(CC(=O)Nc2ccccc2F)S(C)(=O)=O)c1	-4	2	-1	-4	2	-13	i	6
2	O=C(NC(NC(=S)Nc1ccccc1C(=O)O)C(Cl)(Cl)Cl)c1ccco1 (stereo unspecified)	-1	3	-1	.	5	.	i	-6
3	COCCN(C(=O)CSc1nnc(-c2ccc(C)c(C)c2)o1)c1c(N)n(CC(C)C)c(=O)[nH]c1=O	.	-1	4	-2	.	7	i	-9
4	COC(=O)c1ccc(Cl)c(NC(=O)CN(c2ccc3c(c2)OCO3)S(C)(=O)=O)c1	-6	1	1	-112	-4	.	i	0
5	Cc1ccc(CN2C(=O)C3CCCN3c3ccc(S(=O)(=O)N4CCOCC4)cc32)cc1 (stereo unspecified)	-9	.	.	.	-8	.	i	-10
6	COc1ccc(-c2nnc(Nc3nc4c(OC)cccc4s3)o2)cc1	.	8	-5	72*	.	-21	i	81*
7	Cn1cnnc1SCC(=O)N1CCN(C(=O)c2ccco2)CC1	7	3	6	-17	-5	.	i	-2
8	COc1c2ccoc2nc2c(OC)c(OCC(OC(C)=O)C(C)(C)O)ccc12 (stereo unspecified)	5	-7	-7	.	-1	-20	i	-9
9	COc1ccc(NC(=O)CC(Cc2ccc(Cl)cc2)C(=O)O)cc1 (stereo unspecified)	7	-2	1	-10	8	.	i	1
10	C[C@H]1CN([C@@H](C)CO)C(=O)CCCn2nncc2CO[C@H]1CN(C)S(=O)(=O)c1ccc(F)cc1	.	3	1	2[16.7 µM]	.	-15&-7&-8	.	.
11	C/C(=N\Nc1ccc([N+](=O)[O-])cc1)c1ccc(C#N)cc1	-15	9	6	-17	2	-9	i	0
12	ClCc1nnc(-c2ccccc2)o1	3	-2	3	-19	-5	.	i	-3
13	O=C(Nc1cccc(S(=O)(=O)N2CCCC2)c1)c1ccccc1OC(F)F	-8	-2	-1	.	-7	-25	i	.
14	O=C(NNC1CC(=O)N(c2ccc(Br)cc2)C1=O)c1ccco1 (stereo unspecified)	-12	1	-2	1	-5	-18	i	-9
15	CCN(CC)c1ccc(CN(C(=O)c2cc(OC)c(OC)c(OC)c2)C2CCS(=O)(=O)C2)cc1 (stereo unspecified)	2	2	2	.	3	3	i	15
16	COc1ccc(-c2cnc3ccccc3n2)cc1NC(=O)CNC(=O)c1ccccc1	-6	1	-3	-84	0	-12	i	-18
17	CCOC(=O)c1cc(C(C)C)sc1NC(=O)COC(=O)CCS(=O)(=O)c1ccccc1	7	2	-4	.	3	-19	i	-2
18	Cc1ccc(C)c(S(=O)(=O)NC(C)CCc2ccccc2)c1 (stereo unspecified)	-4	-4	-4	0	-6	-15	i	2
19	CCOc1ccc(NC(=S)NCCCN2CCN(c3ccc(OC)cc3)CC2)cc1	-4	1	-2	5	-2	-5	i	7
20	COc1ccccc1N1CCN(C(=O)CSc2nnc3n2C(C)(C)Cc2ccccc2-3)CC1	-7	2	-20	74*	-11	9	i	.

# Five compounds drawn at random from those above:
entry	SMILES	PABP FP inh	MT1-MMP act inh	MT1-MMP act inh RFP	HIV Env fusion	eIF4H inh	UUG fidelity	Rce1 inh	CSC inhib
7	Cn1cnnc1SCC(=O)N1CCN(C(=O)c2ccco2)CC1	7	3	6	-17	-5	.	i	-2
16	COc1ccc(-c2cnc3ccccc3n2)cc1NC(=O)CNC(=O)c1ccccc1	-6	1	-3	-84	0	-12	i	-18
17	CCOC(=O)c1cc(C(C)C)sc1NC(=O)COC(=O)CCS(=O)(=O)c1ccccc1	7	2	-4	.	3	-19	i	-2
15	CCN(CC)c1ccc(CN(C(=O)c2cc(OC)c(OC)c(OC)c2)C2CCS(=O)(=O)C2)cc1 (stereo unspecified)	2	2	2	.	3	3	i	15
3	COCCN(C(=O)CSc1nnc(-c2ccc(C)c(C)c2)o1)c1c(N)n(CC(C)C)c(=O)[nH]c1=O	.	-1	4	-2	.	7	i	-9

# Following part
entry	SMILES	PABP FP inh	MT1-MMP act inh	MT1-MMP act inh RFP	HIV Env fusion	eIF4H inh	UUG fidelity	Rce1 inh	CSC inhib
21	CCCN(CCC)CC(=O)Nc1cccc2c1OCO2	2	-3	-1	.	0	-21	i	-15
22	COc1ccc(C2CC(c3cccs3)=NN2S(C)(=O)=O)cc1OC (stereo unspecified)	-9	-4	-1	18	2	.	i	-2
23	Cc1ccc2c(c1)N(CC(=O)NC1CCCc3ccccc31)C(=O)CO2 (stereo unspecified)	-1	-1	4	-2	-15	-3	i	-5
24	CCOc1c2c(nc3ccc(Cl)cc13)CCC2	-3	-1	-5	-27	-4	-16	i	.
25	CCOc1ccc(OCC)c(NS(=O)(=O)c2ccc3c(c2)n(C)c(=O)c(=O)n3C)c1	10	4	2	4	-2	5	i	3
26	COc1ccc2c3n([n+]([O-])c2c1)CCN=C3c1ccc(C)cc1	.	-2	5	-5	.	-5	.	6
27	Cc1ccc(S(=O)(=O)N2CCC(C(=O)O)CC2)cc1	6	6	11	13	4	.	i	-8
28	COC(=O)C1=C(C(C)=O)C(c2ccc(C(=O)OC)cc2)n2nnnc2N1 (stereo unspecified)	-6	3	5	.	-10	.	i	13
29	Cc1c(C(=O)OCC(=O)Nc2ccc3c(c2)OCO3)cccc1[N+](=O)[O-]	14	5	7	7	-3	-13	i	7
30	CCN(CC)C(=O)CN(c1ccc2c(c1)OCO2)S(C)(=O)=O	1	-2	2	-98	-7	-15	i	2

# Reformatted: four of the compounds above
26: COc1ccc2c3n([n+]([O-])c2c1)CCN=C3c1ccc(C)cc1
  PABP FP inh = .	MT1-MMP act inh = -2	MT1-MMP act inh RFP = 5	HIV Env fusion = -5	eIF4H inh = .	UUG fidelity = -5	Rce1 inh = .	CSC inhib = 6
27: Cc1ccc(S(=O)(=O)N2CCC(C(=O)O)CC2)cc1
  PABP FP inh = 6	MT1-MMP act inh = 6	MT1-MMP act inh RFP = 11	HIV Env fusion = 13	eIF4H inh = 4	UUG fidelity = .	Rce1 inh = i	CSC inhib = -8
28: COC(=O)C1=C(C(C)=O)C(c2ccc(C(=O)OC)cc2)n2nnnc2N1 (stereo unspecified)
  PABP FP inh = -6	MT1-MMP act inh = 3	MT1-MMP act inh RFP = 5	HIV Env fusion = .	eIF4H inh = -10	UUG fidelity = .	Rce1 inh = i	CSC inhib = 13
29: Cc1c(C(=O)OCC(=O)Nc2ccc3c(c2)OCO3)cccc1[N+](=O)[O-]
  PABP FP inh = 14	MT1-MMP act inh = 5	MT1-MMP act inh RFP = 7	HIV Env fusion = 7	eIF4H inh = -3	UUG fidelity = -13	Rce1 inh = i	CSC inhib = 7

# (next part)
entry	SMILES	PABP FP inh	MT1-MMP act inh	MT1-MMP act inh RFP	HIV Env fusion	eIF4H inh	UUG fidelity	Rce1 inh	CSC inhib
31	Cc1csc2nc(O)c(C(=O)NC3CCCCC3)c(=O)n12	.	5	4	22	.	12	i	-3
32	CCN(CC)c1nc(N)c([N+](=O)[O-])c(NCCO)n1	-18	1	3	12	-2	.	i	-17
33	CNC(=S)N(CCc1ccc(OC)c(OC)c1)Cc1cc2c(C)cc(C)cc2[nH]c1=O	16	0	2	30	5	.	i	-7
34	COc1cnc(SCc2ccc(Cl)cc2Cl)nc1Cl	-6	4	3	-6	2	-11	i	10
35	C=CCNC(=O)c1ccc(-c2cccc([N+](=O)[O-])c2)o1	-8	5	2	-16	-5	1	i	14
36	CCOc1ccc(CCNC(=O)COC(=O)/C=C/c2ccccc2OC)cc1OCC	.	-2	0	-24	.	.	i	-6
37	O=C(Nc1ccc(Cl)cn1)c1cc(S(=O)(=O)N2CCCCC2)ccc1Cl	4	2	-2	11	-5	-18	i	-4
38	Cc1c(NC(=O)CSc2nnnn2-c2ccc(F)cc2)c(=O)n(-c2ccccc2)n1C	5	0	2	3	-2	10	i	-5
39	CCOC(=O)CNC(=O)c1c(C)nn(C)c1Cl	-4	3	2	-63	-11	.	i	-1
40	COC(=O)C1=C(C)NC(=S)NC1c1ccc(OCC(=O)N2CCCCC2)c(OC)c1 (stereo unspecified)	-14	-2	1	-102	-12	3	.	-8
41	CC(=O)Nc1ccn(-c2ccccc2)n1	3	1	2	-41	-9	-14	i	.
42	Cc1cc(C)n(CCc2nc(-c3ccc(-c4ccccc4)cc3)cs2)n1	-7	2	-14	-1	0	-18	i	56
43	CCNC(=O)C1(C)CCCN1C(=O)c1cnc2ccccc2n1 (stereo unspecified)	.	2	4	-7	.	-8	.	.
44	O=C(NNC1CC(=O)N(c2ccc(Br)cc2)C1=O)c1cccs1 (stereo unspecified)	-12	1	4	6	-5	-16	i	6
45	CCOc1ccc(NC(=S)N(Cc2ccc(N(C)C)cc2)Cc2ccco2)cc1	3	10	0	.	-2	.	i	-3
46	COc1ccc(NC(=O)Nc2nnc(-c3ccncc3)s2)cc1	-1	-9	-22	29	7	.	i	-4
47	O=C(O)c1cccc(Nc2ccc([N+](=O)[O-])c3nonc23)c1	-10	9	5	-103	29	-4	i	-9
48	CN(C)S(=O)(=O)c1ccc(C(=O)NCc2ccc3[nH]c4c(c3c2)CCCC4)cc1	0	-1	2	.	12	-21	i	-2
49	CSc1ccc(Cn2c(C)c(C(=O)NCc3cccc(C(F)(F)F)c3)sc2=O)cc1	.	3	-10	-19	.	-10	.	.
50	Fc1ccc(NCc2cccnc2)cc1	1	-2	-1	-71	1	-3	i	-6
51	C/C(=N\NC(=O)C1CC1)c1ccc(Cl)cc1	27	3	4	-9	-4	.	i	9
52	O=C1CC(=C(c2ccccc2)c2ccccc2)C(=O)N1CCCCN1CCN(c2cccc(Cl)c2)CC1	1	-1	-14	.	-10	.	i	113*
53	O=C(COC(=O)C12CC3CC(CC(O)(C3)C1)C2)Nc1ccc(Br)cc1F	.	-1	-2	-65	.	-23	.	-9
54	O=c1cc(N2CCN(c3ccccc3)CC2)[nH]c(=O)n1-c1ccccc1Cl	-10	-1	1	.	-5	11	i	2
55	COc1ccccc1N1CCN(C(=O)c2ccoc2C)CC1	9	-2	4	.	-2	-8	i	4
56	CCN(CC)CCn1c(=S)[nH]c2ccccc2c1=O	0	-2	5	.	-3	-15	i	6
57	Cc1cc2nc(-c3ccc[nH]c3=O)n(Cc3cccc(F)c3)c2cc1C	-6	4	-3	5	-2	-8	i	-11
58	Cc1cccc(C(=O)NC(=S)N2CCN(C(=S)NC(=O)c3cccc(C)c3)CC2)c1	2	8	4	-26	3	-36	i	-7
59	COc1ccc2c(c1)c1nc3n(c(=O)c1n2CC(=O)Nc1ccccc1)CCCS3	.	2	2	15	.	-22	i	-5
60	Cc1ccn2c(CNCc3cnn(C)c3)c(C(=O)N3CCCCCC3)nc2c1	1	-4	3	-3	8	-5	i	13

# The final 2 records of the section before come first, to join the parts:
entry	SMILES	PABP FP inh	MT1-MMP act inh	MT1-MMP act inh RFP	HIV Env fusion	eIF4H inh	UUG fidelity	Rce1 inh	CSC inhib
59	COc1ccc2c(c1)c1nc3n(c(=O)c1n2CC(=O)Nc1ccccc1)CCCS3	.	2	2	15	.	-22	i	-5
60	Cc1ccn2c(CNCc3cnn(C)c3)c(C(=O)N3CCCCCC3)nc2c1	1	-4	3	-3	8	-5	i	13
61	C1=C(c2cccc3ccccc23)N2CCN=C2S1	0	-3	4	.	2	-22	i	-4
62	CCN(CC)S(=O)(=O)c1ccc(NCCCn2ccnc2)c([N+](=O)[O-])c1	-1	-2	-3	2	-7	-16	i	44
63	O=C(NC1CCCCCC1)c1cc(-c2ccccn2)nc2ccccc12	-1	-5	-3	3	0	-3	i	.
64	S=c1sscc1-c1ccccc1	.	-8	2	-14	.	-12	.	.
